# INS promoter inh – TRM-6 insulin promoter activity inhibition; TRM-6 cells (human fetal islet line), insulin promoter-eGFP reporter, imaging; reporter expression induced with tamoxifen; inhibition, % at 2 µM; hit rate 0.9% among 130,000; AID 1273;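 active means inhibition above the mean plus 3 SD, with well images judged a real hit on visual review, cut at about 60% in these data, passing the limit was not always enough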
# GALR2 ag – GALR2 (human) receptor agonism; O43603; activation, %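 (tested at 5 µM)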; GALR2-expressing cells, agonist activation read-out; hit rate 0.48% among 140,000;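 active means above mean plus 3 SD of all compounds, about 5% in these data, not always enough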;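 further: 0% = vehicle buffer wells and 100% = reference agonist at full effect; tested in CHO reporter cells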
# RGS16-Gao HTS – modulates binding between human RGS16 and Galphao | bead-based flow cytometry RGS16-Galphao binding, fluorescence; actives lie on both sides | binding response (% of control), % at 10 µM | hit rate 0.38% among 220,000 | AID 1441;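 active means below 25% or above 175%, edge rows of some plates excepted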;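 further: Galphao activated by GDP with aluminum fluoride before binding; 100% = wells without compound and 0% = beads without RGS; some results beyond the cut were filed as inactive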
# HSV augment – HSV replication enhancement | AID 1956 | HSV replication augmentation in cells, fold increase | maximum fold increase | hit rate 0.005% among 220,000;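 active means peak rise of 1.5-fold or more in the series; tested in PC3 cells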;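 further: first round at 10 µM; read as green reporter fluorescence; hits show the peak of a series up to 25 µM; 1 = signal of infected wells without compound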
# PKD1 inh – PKD1 (human) kinase inhibition. Q15139. PKD1 kinase fluorescence polarization assay. inhibition, %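 (about 10 µM by stock and volumes)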. hit rate 0.056% among 200,000;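 active means inhibition of 50% or more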;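 further: controls were vehicle for no effect and a reference inhibitor for full effect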
# Target sequence (Q15139 whole entry, looked up): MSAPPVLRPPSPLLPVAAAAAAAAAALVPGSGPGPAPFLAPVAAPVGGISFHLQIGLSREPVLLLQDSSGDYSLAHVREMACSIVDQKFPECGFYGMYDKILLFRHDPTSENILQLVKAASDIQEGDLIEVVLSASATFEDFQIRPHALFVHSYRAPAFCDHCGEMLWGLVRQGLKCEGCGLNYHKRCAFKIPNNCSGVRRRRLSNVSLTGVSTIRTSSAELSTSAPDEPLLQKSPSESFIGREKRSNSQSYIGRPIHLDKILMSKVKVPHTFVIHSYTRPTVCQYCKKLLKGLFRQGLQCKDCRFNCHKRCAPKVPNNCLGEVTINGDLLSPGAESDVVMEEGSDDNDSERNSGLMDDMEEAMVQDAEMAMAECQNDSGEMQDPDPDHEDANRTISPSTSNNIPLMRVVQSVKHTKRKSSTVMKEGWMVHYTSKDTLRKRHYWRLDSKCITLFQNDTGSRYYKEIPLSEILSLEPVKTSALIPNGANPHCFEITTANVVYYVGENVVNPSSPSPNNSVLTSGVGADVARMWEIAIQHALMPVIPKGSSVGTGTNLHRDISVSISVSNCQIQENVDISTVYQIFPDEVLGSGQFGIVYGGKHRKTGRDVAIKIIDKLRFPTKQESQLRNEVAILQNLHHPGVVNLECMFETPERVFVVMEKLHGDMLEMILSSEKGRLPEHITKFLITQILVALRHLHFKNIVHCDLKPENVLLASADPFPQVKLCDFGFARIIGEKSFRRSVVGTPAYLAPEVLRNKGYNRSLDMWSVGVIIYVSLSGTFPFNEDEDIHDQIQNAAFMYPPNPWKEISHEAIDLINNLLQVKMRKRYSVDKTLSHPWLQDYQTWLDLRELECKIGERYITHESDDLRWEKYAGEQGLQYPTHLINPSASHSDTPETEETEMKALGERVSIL
# INS promoter inh cell count – further read-out of INS promoter inh, marked with its call; normalized cell count, %; measured here: cell count, toxicity; reference of the scale not given here;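 cells exposed to compound for 48 h; stained nuclei by imaging scaled within each plate; lower means fewer cells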
# HSV augment primary fold – also measured in HSV augment; calls as there; fold increase; compound at 10 µM; measured here: primary screen fold increase 10 uM; tested in PC3 cells;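 GFP signal in the first replicate; 1 = infected wells without compound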
# * = called active by the depositor; i = inactive; x = no result given.
Structure,INS promoter inh,INS promoter inh cell count,GALR2 ag,RGS16-Gao HTS,HSV augment,HSV augment primary fold,PKD1 inh
COc1cccc(/C=N\NC(=O)c2sc(N)nc2C)c1OC,24,130,-0.3,92,i,1,-7
CC(=O)Nc1c(C(=O)N2CCN(c3ccccn3)CC2)cnn1-c1ccc(C)cc1,7,166,-0.5,104,i,0.99,-5
NNC(=O)CS(=O)(=O)c1ccc(Cl)cc1,x,x,x,99,i,0.89,x
O=C(O)c1cnc(-c2ccccc2)nc1Oc1ccccc1,x,x,x,104,i,0.88,-3
O=C(CSc1nnc(-c2c[nH]c3ccccc23)o1)c1ccccc1,0,133,-2.9,99,i,0.96,-6
CCOCCCNCc1ccc(OC)cc1,32,70,-1.1,97,i,0.95,-2
COc1ccccc1C1=Nn2c(COc3ccccc3)nnc2SC1,x,x,x,86,i,0.83,7
CCCNS(=O)(=O)c1ccc(Oc2ncc(C(F)(F)F)cc2Cl)cc1,-58,130,0.4,36,i,0.8,-17
COC(=O)c1oc2ccc(Br)cc2c1NC(=O)c1ccccc1,38,129,-3.3,110,i,0.86,-4
COc1ccc(OC)c(C=Nc2ccccc2-c2nc3ccccc3[nH]2)c1,x,x,-0.6,98,i,0.69,-14
O=C(Nc1ccc(Nc2ccccc2)cc1)C(Cl)(Cl)Cl,26,87,-1.0,105,i,0.71,-3
O=C(CCCn1c(=O)oc2ccccc21)Nc1cccnc1,x,x,-3.2,92,i,0.89,-2
CCOC(=O)N1CCC2(CC1)CC(=O)c1c(ccc3oc(C(=O)O)c(C)c13)O2,16,116,-0.2,100,i,0.99,1
[O-][n+]1onc2c1CCc1nnccc1-2,32,114,-1.6,98,i,0.89,-2
O=C(O)CCn1c(=O)n(CCC(=O)O)c(=O)n(CCC(=O)O)c1=O,x,x,x,43,i,1.1,4
O=[N+]([O-])c1ccc(Oc2ccc(F)cc2Br)c2ccncc12,26,101,-1.5,109,i,0.79,-9
Cc1ncoc1C(=O)N1CCCC(CCC(=O)NCc2ccccc2F)C1 (centres undefined),x,x,x,102,i,0.94,-6
CC(C)OC(=O)CSc1nc2cccnc2n1-c1ccc(F)cc1,41,67,-1.1,96,i,0.96,-7
CCOC(=O)C1CCCN(c2ccc(NC(=O)c3snc4c(=O)[nH]c(C)nc34)cc2)C1 (centres undefined),16,51,-3.2,97,i,0.58,0
C=CCn1cccc(C(=O)Nc2ccc(OC)c(OC)c2)c1=O,4,122,x,105,i,0.92,-2
COc1cc(NC(=O)COC(=O)/C=C/c2c(C)nn(-c3ccc(F)cc3)c2Cl)cc(OC)c1,7,107,-0.9,106,i,0.67,-10
COc1ccc(C(CC(=O)NCc2ccco2)c2ccc(F)cc2)cc1 (centres undefined),-19,123,-2.5,104,i,0.69,-3
N#CCC(=O)N/N=C1\CCCCC1C1CCCCC1 (centres undefined),x,x,-0.6,95,i,1.2,-11
COC(=O)c1ccccc1NC(=O)CSc1ccccn1,x,x,-1.9,93,i,0.97,-10
CCOC(=O)C1=C(CSc2nc3c(cc2C#N)CN(C)CC3)OC(N)=C(C#N)C1c1ccc(Cl)cc1 (centres undefined),19,122,0.2,97,i,1,-3
O=C1/C(=C/c2ccccc2)SC(=S)N1C1CCS(=O)(=O)C1 (centres undefined),x,x,x,107,i,0.75,x
COc1ccc(N2C(=O)c3ccccc3S2(=O)=O)cc1,x,x,x,104,i,1.2,x
COc1ccc2c(c1)C(=O)N(c1ccccc1C)C(=O)C2(C)C,x,x,x,104,i,0.89,-6
COc1ccc(OCC(=O)OCCNC(=O)c2cccnc2)cc1,40,85,-2.6,99,i,1.1,1
C=CCOC(=O)C1=C(C)NC(=O)NC1c1ccc(Cl)cc1 (centres undefined),x,x,-4.7,103,i,0.95,14

# Reformatted as labelled records: entries from further up.
> COC(=O)c1ccccc1NC(=O)CSc1ccccn1
- INS promoter inh = x
- INS promoter inh cell count = x
- GALR2 ag = -1.9
- RGS16-Gao HTS = 93
- HSV augment = i
- HSV augment primary fold = 0.97
- PKD1 inh = -10

> CCOC(=O)C1=C(CSc2nc3c(cc2C#N)CN(C)CC3)OC(N)=C(C#N)C1c1ccc(Cl)cc1 (centres undefined)
- INS promoter inh = 19
- INS promoter inh cell count = 122
- GALR2 ag = 0.2
- RGS16-Gao HTS = 97
- HSV augment = i
- HSV augment primary fold = 1
- PKD1 inh = -3

> O=C1/C(=C/c2ccccc2)SC(=S)N1C1CCS(=O)(=O)C1 (centres undefined)
- INS promoter inh = x
- INS promoter inh cell count = x
- GALR2 ag = x
- RGS16-Gao HTS = 107
- HSV augment = i
- HSV augment primary fold = 0.75
- PKD1 inh = x

# Following part:
Structure,INS promoter inh,INS promoter inh cell count,GALR2 ag,RGS16-Gao HTS,HSV augment,HSV augment primary fold,PKD1 inh
COc1ccc(CC(NC(C)=O)C(=O)NC2CCN(S(=O)(=O)c3ccc(NC(C)=O)cc3)CC2)cc1OC (centres undefined),-56,82,x,104,i,0.96,4
O=C(CSc1ncnc2ccccc12)c1ccc2c(c1)OCCO2,x,x,-0.8,108,i,0.95,-5
O=C(NNC(=O)c1ccc2c(c1)OCO2)NC1CCCCC1,x,x,-1.3,101,x,x,8
CCCC1(C(=O)OCC)NC(c2ccc(N(C)C)cc2)C2C(=O)N(c3ccc4c(c3)OCCO4)C(=O)C21 (centres undefined),72,141,-1.7,96,i,0.93,-3
NS(=O)(=O)c1ccc(CNS(=O)(=O)c2cccc3nonc23)cc1,x,x,x,107,i,0.99,x
CCOC(=O)c1c(C)[nH]c(C)c1C(=O)CSc1ncccn1,3,82,-1.5,117,i,1.2,1
COC(=O)c1sc(=S)n(-c2ccc(Cl)cc2)c1C,-10,56,1.0,101,i,0.88,-5
C=C1CCN([C@@H](C)C(=O)NCc2ccc(Cl)cc2)S(=O)(=O)c2ccccc21,x,x,x,96,i,0.97,x
CCC(C)NC(=O)CCCCCn1c(=O)[nH]c2cc(OC)c(OC)cc2c1=O (centres undefined),x,x,-3.8,108,i,0.72,-8
O=[N+]([O-])c1cc(S(=O)(=O)Nc2ccccc2)ccc1NCc1cccnc1,x,x,0.3,97,i,0.91,-3
O=S(=O)(Nc1cc(C(F)(F)F)ccc1N1CCOCC1)c1ccccc1,x,x,x,93,i,1.1,x
Cc1[nH]c2ccccc2c1C(Nc1nccs1)c1ccncc1 (centres undefined),x,x,-0.9,104,i,0.99,4
CC(=O)Nc1ccc(N2CCCC2)cc1,-24,94,-1.7,101,i,0.86,0
C/C(Cn1cnc([N+](=O)[O-])n1)=N\NC(=O)c1ccncc1,-67,69,-0.2,87,i,1,6
COc1cc(OC)c(NC(=O)/C=C/C(=O)O)cc1Cl,x,x,x,110,i,0.92,x
Cc1c(NC(=O)CN2c3ccccc3CC2C)c(=O)n(-c2ccccc2)n1C (centres undefined),x,x,x,101,i,0.95,-2
O=C1CCC(=O)N1CCSC(=S)N1CCSCC1,x,x,x,105,i,0.87,x
N/C(=N\OCc1ccc([N+](=O)[O-])cc1)c1ccncc1,x,x,x,97,i,0.91,3
Cc1ccc(/C=N/NC(=O)CSc2ccccn2)o1,x,x,x,99,i,1,x
COc1ccc(C(=O)NCCn2ccc3ccccc32)cc1,-46,86,-1.7,92,i,0.82,1
C=CCSc1nnc(NC(=O)CSc2ccccn2)s1,-425,55,-0.1,95,i,1,-2
COc1cccc(C(=O)Nc2nc(-c3ccc(S(=O)(=O)N4CCOCC4)cc3)cs2)c1,-251,89,-1.9,101,i,0.9,-2
OCCC1CN(Cc2ccon2)CCN1Cc1ccccc1 (centres undefined),x,x,x,101,i,1.1,-2
Cc1ccc2nc(NC(=O)c3ccc(OCC4CCCO4)cc3)sc2c1 (centres undefined),0,30,-1.2,94,i,0.83,8
COc1cc(C(=O)N2CCC(NC(=O)C(Cc3ccccc3)NC(C)=O)CC2)cc(OC)c1OC (centres undefined),x,x,-1.8,96,i,0.99,4
CCOC(=O)c1cc2occc2n1CC(=O)NC1CCCCC1C (centres undefined),50,147,-3.0,100,i,1.1,-8
CCCCN(CCCC)C(=O)C[n+]1cccc(/C=N/O)c1,71*,120*,x,92,i,0.92,0
O=C(NCC(=O)N(Cc1ccco1)C(C(=O)NC1CCCCC1)c1ccncc1)c1cccs1 (centres undefined),x,x,x,99,i,0.91,x
CCn1c2ccccc2c2cc(CN3CCN(C(=O)c4ccco4)CC3)ccc21,x,x,0.0,105,i,1,-8
O=C(Nc1ccccc1)c1sc(N2CCOCC2)nc1-c1ccccc1,x,x,-1.7,108,x,x,-8

# Laid out differently: results already given.
mol: N/C(=N\OCc1ccc([N+](=O)[O-])cc1)c1ccncc1
  INS promoter inh = x	INS promoter inh cell count = x	GALR2 ag = x	RGS16-Gao HTS = 97	HSV augment = i	HSV augment primary fold = 0.91	PKD1 inh = 3

mol: Cc1ccc(/C=N/NC(=O)CSc2ccccn2)o1
  INS promoter inh = x	INS promoter inh cell count = x	GALR2 ag = x	RGS16-Gao HTS = 99	HSV augment = i	HSV augment primary fold = 1	PKD1 inh = x

mol: COc1ccc(C(=O)NCCn2ccc3ccccc32)cc1
  INS promoter inh = -46	INS promoter inh cell count = 86	GALR2 ag = -1.7	RGS16-Gao HTS = 92	HSV augment = i	HSV augment primary fold = 0.82	PKD1 inh = 1

mol: C=CCSc1nnc(NC(=O)CSc2ccccn2)s1
  INS promoter inh = -425	INS promoter inh cell count = 55	GALR2 ag = -0.1	RGS16-Gao HTS = 95	HSV augment = i	HSV augment primary fold = 1	PKD1 inh = -2

# More records.
Structure,INS promoter inh,INS promoter inh cell count,GALR2 ag,RGS16-Gao HTS,HSV augment,HSV augment primary fold,PKD1 inh
CC(c1ccc(F)cc1)n1c(-c2ccc3ccccc3n2)n[nH]c1=S (centres undefined),x,x,-2.3,102,i,1,1
Cc1ccc(NCC(=O)N/N=C/c2cc(O)ccc2[N+](=O)[O-])cc1,x,x,x,79,i,0.97,8
Brc1ccc2ncnc(Nc3cccc4ccccc34)c2c1,10,108,-0.5,101,i,0.93,-6
Cc1ccc(NC(=O)c2ccc(OC(F)F)cc2)cc1S(=O)(=O)N(C)C,24,133,0.0,98,i,0.93,-9
O=C(Oc1ccc(C(=S)N2CCOCC2)cc1Br)c1cc(Cl)ccc1Cl,-110,97,-3.0,104,i,0.87,8
CCN(CC)c1ccc(/C=N/NC(=O)c2c(Cl)c(C)nn2C)cc1,16,102,0.0,108,i,0.94,-10
Cc1ccc(C)c(S(=O)(=O)NC(Cc2c[nH]c3ccccc23)C(=O)O)c1 (centres undefined),0,123,x,100,i,0.97,0
Cc1ccc(N(C(=O)Cc2cccs2)C(C(=O)NC2CCCC2)c2ccncc2)cc1 (centres undefined),x,x,x,104,i,1.1,-2
c1ccc(Cn2cnc3ccccc32)cc1,-60,83,-0.7,26,i,0.99,-1
O=C(Cc1c[nH]c2ccccc12)OCCOC(=O)Cc1c[nH]c2ccccc12,-58,102,-3.2,97,i,0.96,-15
CCCCOc1ccc(CSCCN=C(N)N)cc1,x,x,x,111,i,0.98,1
COc1ccc(OC)c(C2C3=C(CCCC3=O)Nc3nnnn32)c1 (centres undefined),0,143,0.2,102,i,1,-1
Clc1ccccc1CSc1snnc1-c1ccccc1,13,95,-1.7,100,i,0.8,1
O=C(c1cc(-c2ccc3c(c2)OCO3)on1)N1CCN(c2ccc(F)cc2)CC1,x,x,-2.7,47,i,1,-5
COc1ccc(Cc2nnc(SCC(=O)c3cccc([N+](=O)[O-])c3)n2C)cc1,-67,76,0.6,95,i,0.97,1
O=C(Nc1cc(S(=O)(=O)N2CCOCC2)ccc1N1CCOCC1)c1ccc(S(=O)(=O)N2CCCCC2)cc1,14,84,x,84,i,0.94,0
Cn1c2ccccc2c2cc(C(=O)N3CCN(CCO)CC3)sc21,x,x,-2.4,82,i,0.86,5
CC(C)N(C(=O)CSc1nnc(CN2CCCCCC2=O)n1-c1ccccn1)C(C)C,x,x,-1.2,103,i,0.89,-3
C=CCN(CC=C)C(=O)C(=O)c1cc(C)n(-c2ccc([N+](=O)[O-])cc2)c1C,0,78,-1.5,97,x,x,-6
CCc1nnc(NS(=O)(=O)c2ccc(N3C(=O)c4ccccc4C3=O)cc2)s1,x,x,x,100,i,1,1
CCC(C)C(=O)Nc1cc(OC)c(OC)cc1C(=O)O (centres undefined),16,106,-1.3,101,i,1,1
COc1ccc(NC(=O)CN2CCN(c3ccccc3)CC2)cc1,-29,77,x,101,i,0.93,-3

# An unsorted share of the library (roughly 1.3% active in at least one column).
